Bioassay records: PubChem, Johns Hopkins Ion Channel Center
KCNQ2 pot: potentiators of rat KCNQ2 potassium channel. CHO-K1 KCNQ2, FluxOR thallium flux fluorescence; stronger effect = higher value. B-score at 10 µM. 0.54% of 310,000 active. AID 2239, 2010;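 active means fluorescence ratio B-score at least 3 SD of library B-scores, with initial fluorescence B-score within 3 SD, cut at about 5.3 in these data; same plate scores as AID 2156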;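 further: B-score of peak minus minimum over baseline fluorescence ratio after K+ and Tl+ stimulus; positive B-score means potentiation of KCNQ2 with more thallium influx and brighter signal; only the inactives scoring about 0 or higher are listed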
Target sequence (O88943 whole entry, looked up): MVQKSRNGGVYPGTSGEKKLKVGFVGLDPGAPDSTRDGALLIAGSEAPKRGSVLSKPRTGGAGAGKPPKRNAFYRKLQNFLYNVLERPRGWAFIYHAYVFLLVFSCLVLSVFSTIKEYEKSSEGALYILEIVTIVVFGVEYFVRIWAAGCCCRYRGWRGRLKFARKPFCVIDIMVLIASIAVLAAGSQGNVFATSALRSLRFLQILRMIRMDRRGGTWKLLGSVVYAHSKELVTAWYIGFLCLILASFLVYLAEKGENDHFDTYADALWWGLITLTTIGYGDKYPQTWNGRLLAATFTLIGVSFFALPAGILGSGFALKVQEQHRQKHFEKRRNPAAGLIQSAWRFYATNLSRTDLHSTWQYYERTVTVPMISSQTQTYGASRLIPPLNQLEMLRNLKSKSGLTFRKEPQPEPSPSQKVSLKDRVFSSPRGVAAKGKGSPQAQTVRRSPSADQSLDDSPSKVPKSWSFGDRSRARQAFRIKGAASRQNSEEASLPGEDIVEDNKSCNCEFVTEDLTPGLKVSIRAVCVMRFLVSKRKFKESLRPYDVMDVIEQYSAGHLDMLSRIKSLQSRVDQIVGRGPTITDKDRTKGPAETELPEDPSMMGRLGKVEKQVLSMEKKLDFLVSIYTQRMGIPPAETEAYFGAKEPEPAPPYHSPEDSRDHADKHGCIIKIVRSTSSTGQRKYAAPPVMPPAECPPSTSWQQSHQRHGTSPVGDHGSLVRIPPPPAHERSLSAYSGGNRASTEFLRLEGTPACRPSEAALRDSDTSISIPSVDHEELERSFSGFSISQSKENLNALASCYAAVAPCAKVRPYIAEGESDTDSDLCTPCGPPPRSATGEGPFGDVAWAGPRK
KCNQ2 pot baseline: second read-out of KCNQ2 pot, no call of its own (marks repeat the call); B-score; compound at 10 µM; measured here: initial fluorescence intensity artifact check;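 brightness before thallium and not channel activity; 0 = typical well and far values either way flag optical interference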
The depositor's hits bear a star; / = no result given. Some of the compounds tested; count on the stated rates, not on these rows.

SMILES | KCNQ2 pot | KCNQ2 pot baseline
Cc1cc(C(=O)N/N=C/c2ccc(-c3ccccc3Cl)o2)n[nH]1 | 0.2 | 2.35
CCN(C(=O)COC(=O)Cc1c[nH]c2ccccc12)c1c(N)n(Cc2ccccc2)c(=O)[nH]c1=O | 1.01 | 1.1
COc1ccc(OC)c(C2N(c3ccccn3)C(=O)C3CCCN32)c1 (stereo not given) | 2.29 | -1.87
Clc1ccc(C2CC(c3ccco3)n3ncnc3N2)cc1Cl (stereo not given) | 0.62 | -0.19
COc1cccc(CN2CC(C(=O)NCC3CCOCC3)CCC2=O)c1 (stereo not given) | 0.02 | -0.64
CSCC(=O)Nc1cc(C)on1 | 0.17 | 1.37
O=C(NNC(=O)c1ccccc1Cl)c1cccnc1 | 0.68 | -0.02
CCc1c(C)sc(NC(=O)/C=C/C(=O)O)c1C(N)=O | 1.63 | 1.68
Cc1nc(OCC(=O)c2ccc(Cl)cc2)c(C#N)c2c1COC(C)(C)C2 | 0.81 | -0.41
O=C(CSc1oc(-c2ccc(F)cc2)nc1S(=O)(=O)c1ccc(F)cc1)NCC1CCCO1 (stereo not given) | 1.34 | 0.22
O=C(COc1ccc2c3c(c(=O)oc2c1)CCC3)NCc1cccnc1 | 1.09 | -0.08
O=C(c1cccs1)N1CCN(c2ccc(F)cc2)CC1 | 0.72 | -0.29

Profiles, looked up by structure:
O=C(c1cccs1)N1CCN(c2ccc(F)cc2)CC1 is listed as KCNQ2 pot = 0.72; KCNQ2 pot baseline = -0.29
COc1cccc(CN2CC(C(=O)NCC3CCOCC3)CCC2=O)c1 (stereo not given) is listed as KCNQ2 pot = 0.02; KCNQ2 pot baseline = -0.64

(list continues)
SMILES | KCNQ2 pot | KCNQ2 pot baseline
CCC1Sc2ccc(S(=O)(=O)CCC(=O)NCc3ccc(C)o3)cc2NC1=O (stereo not given) | 0.31 | -1.16
FC(F)(F)c1cc(C(F)(F)F)c2ccc(N/N=C/c3ccccc3)nc2n1 | 1.04 | 0.06
COc1cccc(C(=O)Nc2cnc(NC(=O)c3ccco3)cc2C)c1 | 0.36 | 2.03
COc1ccc(-n2cnnc2SC(C)C(=O)Nc2cccc([N+](=O)[O-])c2)cc1 (stereo not given) | 1.4 | 1.18
Clc1ccc(NCc2cccnc2)c(Cl)c1 | 1.27 | -0.16
N#Cc1c(-c2ccco2)cc(-c2ccc(F)cc2)nc1N | 0.48 | 0.4
CCCCn1c(N)c(Sc2ccc([N+](=O)[O-])cc2)c(=O)[nH]c1=O | 0.27 | -0.64
O=C(/C=C/c1ccco1)Nc1ccc(Oc2ccc(Cl)cc2)cc1 | 3.49 | -1.81
COc1ccc(-c2cc(C(F)F)n3ncc(C(=O)NCC4CCCO4)c3n2)cc1 (stereo not given) | 3.5 | -0.93
CCOC(=O)c1c(C)c(C(=O)NCc2ccc3c(c2)OCO3)c(C)n1C | 0.98 | 0.01
CCOC(=O)CSc1nc2c(sc(=S)n2CCc2ccccc2)c(=O)n1Cc1ccco1 | -5.6 | /
O=C(NCCc1ccccc1)C1CCC(CNS(=O)(=O)c2ccccc2)CC1 (stereo not given) | 0.59 | -1.65
COc1ccc(/C=N\NC(=O)c2sc(N)nc2C)cc1OC | 2.72 | -1.06
CCOC(=O)C(Cc1ccccc1)C(=O)Nc1ccc(N(CC)CC)cc1 (stereo not given) | 0.59 | -1.39
COc1cccc2cc(C(=O)NCc3ccc(C)cc3)c(=O)oc12 | 0.01 | -0.1
NNC(=O)c1ccc(CSc2cccc3cccnc23)cc1 | 0.39 | -0.42
CC(OC(=O)CCc1nc(=O)c2ccccc2n1C)C(=O)NCc1ccc2c(c1)OCO2 (stereo not given) | 0.51 | 0.26
COc1ccccc1C(=O)COC(=O)c1ccc(-n2cnnn2)cc1 | 0.45 | -0.06
CCCCCCN1C=CC=C/C1=C/C=C(C#N)C#N | 0.03 | 0.67
COc1ccc(NC(=O)NCCc2cccc(Cl)c2)cc1OC | 0.57 | -1.02
Cc1cccc(NC(=O)CSc2c3c(nc4ccccc24)CCC3)n1 | 0.19 | -0.17
COc1cc(C(=O)N2CCN(S(=O)(=O)c3cccs3)CC2)cc(OC)c1C | 0.04 | 0.05
CCOC(=O)N1[C@@H]2C=C(C)[C@@H]2[C@@H]2[C@@H](C)C(=O)N21 | 0.01 | -1.31
CCc1ccccc1NC(=O)c1cc2sccc2n1C | 0.28 | -0.24
Cc1cc(NS(=O)(=O)c2ccc(NC(=O)C(C)Oc3cccc(C)c3C)cc2)nc(C)n1 (stereo not given) | 0.53 | -0.35
COc1ccc(NC2=CC(=O)CC(C)(C)C2)cc1 | 3.23 | 2.04
CC1(C)C(=O)N(c2ccccc2)C(=O)c2ccccc21 | 0.99 | 0.69
N#C/C(C(=O)Oc1ccccc1)=C1\C=CC=CN1 | 0.77 | 0.03
c1ccc2c(c1)nc1n2CCS1 | 0.08 | 1.08
COc1ccc(CN2CCN(C(C)C(=O)N3CCc4ccccc43)CC2)cc1OC (stereo not given) | 0.39 | -0.8
O=C(CCCSc1nc2ccccc2[nH]1)NC(c1ccccc1)c1ccccc1 | 1.38 | -0.34
Cc1cccc(NS(=O)(=O)Cc2ccccc2)c1C | 1.28 | -1.02
O=C(O)C1=C(C(=O)Nc2ccc(F)c(Cl)c2)CCCC1 | 1.11 | 0
CC1CC(N(C(=O)c2ccccc2Cl)c2ccccc2)c2ccccc2N1 (stereo not given) | 1.13 | -1.25
c1csc(-c2cnc3n2CCCC3)c1 | 1.81 | -1.19
CC12CCC(=O)N1C(C(=O)Nc1nc3ccc(S(C)(=O)=O)cc3s1)CS2 (stereo not given) | 0.59 | -1.58
O=C1CCN(Cc2ccccc2)S(=O)(=O)c2ccccc21 | 0.13 | -0.79
C=C(C)Cn1c(=O)c2c(nc3n2CCCN3CCc2ccccc2)n(C)c1=O | 1.16 | 2.65
CCC(C)(C)NC(=O)C(c1cccnc1)N(CCOC)C(=O)Cn1nnc2ccccc21 (stereo not given) | 0.58 | -0.05
O=C1c2c(O)cc(O)cc2O[C@H](c2ccc(O)c(O)c2)[C@@H]1O | 0.02 | -1.42
O=S(=O)(NC1CCCc2ccccc21)c1cnc[nH]1 (stereo not given) | 1.68 | 0.32
Cc1cc(=O)oc2ccc(OC(=O)c3cccc(S(=O)(=O)N4CCOCC4)c3)cc12 | 3.22 | 1.42
CC(=O)Nc1ccc(NC(=O)CSc2nnc(C)c(=O)[nH]2)cc1 | 1.65 | 0.01
O=C(CSc1nc(Cc2ccccc2)nc2ccccc12)c1ccc2c(c1)OCCO2 | 1.77 | -2.11
OCn1c2ccccc2c2ccccc21 | 1.16 | -1.25
Cc1ccc(CC(=O)N(C)CC(=O)N(CC(C)C)c2c(N)n(CC(C)C)c(=O)[nH]c2=O)cc1C | 0.1 | -0.17
O=S(=O)(NC1CC1)c1ccc(S(=O)(=O)N2CCc3ccccc32)cc1 | 0.2 | -1.74
CCOn1c(=O)c(-c2cccc([N+](=O)[O-])c2)[n+]([O-])c2ccccc21 | 0.94 | -1.26
CCCNc1nc(C)c(C(C)=O)cc1C#N | 0.07 | 2.74
O=C(CSc1ccc(-c2ccccc2)nn1)Nc1ccc2c(c1)OCCO2 | 1.78 | 0.06
N#Cc1cc2c(nc1Cl)CCC2 | 1.5 | -0.12
Cc1ccc(-c2onc3ccc(C4OCCO4)cc23)cc1 | 0.6 | 1.16
CCc1ccc(CN(C(=O)c2ccco2)C2CCS(=O)(=O)C2)cc1 (stereo not given) | 1.24 | -0.01
Cc1ccc(NS(=O)(=O)c2ccc(CCC(=O)NCc3cccnc3)cc2)cc1 | 0.86 | -0.83
COc1ccccc1/C=C/C(=C1/C(=O)N(c2ccccc2)N=C1C)c1ccc(C)cc1 | 0.71 | -1.23
CCOc1ccccc1-c1nc(C(N)=O)c2[nH]c(=O)n(-c3ccc(F)cc3)c2n1 | 0.26 | 2.27
Cc1ccc(C(C(=O)NC2CCCC2)N(CCCO)C(=O)Cn2nnc(-c3ccc(C)o3)n2)cc1 (stereo not given) | 1.57 | -1.38
CCOC(=O)c1ccc(NC(=S)NCc2ccccc2)cc1 | 1.33 | 2.39
CCN(Cc1ccccc1)C(=O)CCS(=O)(=O)c1ccc2c(c1)n(C)c(=O)c(=O)n2C | 0.12 | 1.61
CCOC(=O)c1sc(Nc2ccccc2)nc1C | 1.54 | 1.31

Remaining list, next part
SMILES | KCNQ2 pot | KCNQ2 pot baseline
Cc1ccc2c(c1)cc1c(=O)n(CC(=O)N3CCCC3)nc(C)n12 | 1.46 | -0.05
Cc1cccc(C(=O)Nc2cccnc2Cl)c1 | 0.01 | 0.95
Cc1nnc(SCC(=O)NC2CC2)n1CC1CCCO1 (stereo not given) | 1.64 | -0.26
Cc1cccc(Oc2ccc(NC(=O)c3ccccc3C(=O)O)cc2)c1C | 0.05 | -0.04
CCOC(=O)C1=C(C)N(CCO)C(=O)NC1c1ccccc1 (stereo not given) | 1.77 | 2.53
Cc1cccn2cc(CNC(=O)c3ccco3)nc12 | 0.18 | 1.09
NS(=O)(=O)c1ccc(CCNC(=O)CN2CCN(c3ccccc3F)CC2)cc1 | 1.13 | -0.97
CCOC(=O)Nc1ccc2ncn(C)c(=O)c2c1 | 2.54 | -0.46
CC12CCC(C(=O)N(CSC(=S)N/N=C\c3ccccc3Cl)C1=O)C2(C)C (stereo not given) | 1.71 | -0.81
CC1CCN(C2CC(=O)N(c3ccccc3)C2=O)CC1 (stereo not given) | 0.29 | 0.07
COc1cc(OC)c(C(=O)CCCN2CCCC2)c(OC)c1 | 1.24 | -0.19
CN(C)C(=N)c1n[nH]nc1SCc1ccccc1 | 0.6 | 2.09
C=C(C)CN=C1SC(C(=O)Nc2sc3c(c2C(=O)OC)CCC3)C(N)=C1C(N)=O (stereo not given) | 0.61 | 0.92
O=C(c1ccc2c(c1)OCO2)C1CCCN(C2CCN(CCc3ccccc3)CC2)C1 (stereo not given) | 2.19 | -0.86
C=CCNC(=O)C1CC(=O)N(c2ccc(OCC(=O)Nc3ccc(OC)cc3)cc2)C1 (stereo not given) | 1.3 | -0.01
O=C(c1cc2ccccc2oc1=O)N(Cc1cccs1)Cc1cccs1 | 1.67 | -0.46
COc1ccc(C(=O)/C=C/c2cccs2)c(OC(=O)c2cccc([N+](=O)[O-])c2)c1 | 0.25 | -0.76
CC(NC(=O)C1CSC2(C)CCC(=O)N12)c1ccccc1Cl (stereo not given) | 1.89 | 2.37
O=C(NC1CCCCC1)c1ccc([N+](=O)[O-])o1 | 0.46 | 0.32
COc1cc(NC(=O)CSc2nccc(=O)[nH]2)c(C)cc1[N+](=O)[O-] | 0.39 | -0.08
COc1cc(C2C(C#N)=C(N)N(c3cccnc3)C3=C2C(=O)CCC3)ccc1O (stereo not given) | 0.24 | 0.67
COc1ccc2c(c1)C1=C(CC2)C(c2ccc(C)cc2)NC(=S)N1 (stereo not given) | 2.26 | 1.21
COc1ccc2c(c1)C(NC(C)=O)C(=O)N2C (stereo not given) | 0.57 | 0.1
O=C(Nc1ccccc1)Nc1nc(-c2ccc(F)c(F)c2)cs1 | 0.02 | 0.08
COc1ccc(NC(=O)c2ccc(Cl)nc2)cc1S(=O)(=O)N1CCCCC1 | 0.08 | 0.1
COc1ccc(CN(C(=S)Nc2ccccc2)C2CC(=O)N(c3ccc(F)cc3)C2=O)cc1 (stereo not given) | 1.67 | 1.24
COc1cccc(NC(=O)c2ccccc2N2C(=O)C3C4C=CC(C5CC45)C3C2=O)c1 (stereo not given) | 1.49 | 0.49
COC(=O)c1oc(-c2ccccc2)nc1C | 1.2 | 1.67
CCc1ccc(NC(=S)N(CCN2CCCCC2)Cc2ccco2)cc1 | 0.49 | -1.38
O=C(O)/C=C/C(=O)N1CCN(c2cccc(Cl)c2)CC1 | 0.11 | 0.17
Cc1cc(C)c(S(=O)(=O)N2CCCC2)c(C)c1 | 0.25 | 1.19
CCOC(=O)c1cccc(NC(=O)CCS(=O)(=O)c2ccc(Br)s2)c1 | 0.68 | -0.71
COc1ccc(C2C(C#N)=C(SCC(=O)Nc3ccc(C)cc3)NC3=C2C(=O)CC(C)(C)C3)cc1 (stereo not given) | 4.19 | -2.36
O=C(NCC(=O)N1CCN(c2ccccn2)CC1)c1ccc(Br)o1 | 1.57 | -1.35
COc1cccc2cc(-c3nc4ccccc4o3)c(=O)oc12 | 0.01 | 3.05
O=C(COc1ccc2c(c1)oc(=O)c1ccccc12)NCCCN1CCOCC1 | 1.83 | -0.42
COc1ccc2cc(C(=O)NCCCN3CCCC3=O)[nH]c2c1 | 0.94 | 0.76
CCN(CC(=O)Nc1ccc(NC(C)=O)cc1)Cc1c(O)ccc2cc(Br)ccc12 | 0.39 | 0.26

Grouped by structure: the compounds so far with a furan ring, fused or not
SMILES | KCNQ2 pot | KCNQ2 pot baseline
Cc1cc(C(=O)N/N=C/c2ccc(-c3ccccc3Cl)o2)n[nH]1 | 0.2 | 2.35
Clc1ccc(C2CC(c3ccco3)n3ncnc3N2)cc1Cl (stereo not given) | 0.62 | -0.19
CCC1Sc2ccc(S(=O)(=O)CCC(=O)NCc3ccc(C)o3)cc2NC1=O (stereo not given) | 0.31 | -1.16
COc1cccc(C(=O)Nc2cnc(NC(=O)c3ccco3)cc2C)c1 | 0.36 | 2.03
N#Cc1c(-c2ccco2)cc(-c2ccc(F)cc2)nc1N | 0.48 | 0.4
O=C(/C=C/c1ccco1)Nc1ccc(Oc2ccc(Cl)cc2)cc1 | 3.49 | -1.81
CCOC(=O)CSc1nc2c(sc(=S)n2CCc2ccccc2)c(=O)n1Cc1ccco1 | -5.6 | /
CCc1ccc(CN(C(=O)c2ccco2)C2CCS(=O)(=O)C2)cc1 (stereo not given) | 1.24 | -0.01
Cc1ccc(C(C(=O)NC2CCCC2)N(CCCO)C(=O)Cn2nnc(-c3ccc(C)o3)n2)cc1 (stereo not given) | 1.57 | -1.38
Cc1cccn2cc(CNC(=O)c3ccco3)nc12 | 0.18 | 1.09
O=C(NC1CCCCC1)c1ccc([N+](=O)[O-])o1 | 0.46 | 0.32
CCc1ccc(NC(=S)N(CCN2CCCCC2)Cc2ccco2)cc1 | 0.49 | -1.38
O=C(NCC(=O)N1CCN(c2ccccn2)CC1)c1ccc(Br)o1 | 1.57 | -1.35
